Ins promoter up – MIN6 insulin promoter up-regulation | MIN6 insulin promoter-GFP reporter, high-content imaging; active compounds read high | z-score at 5 µM | 0.3% of 190,000 active;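 active means z-score above 3 at 5 µM with at least 500 cells counted in the well; inconclusive means wells under 500 cells, flagged as cytotoxic or low count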
MT stabilizer – stabilizes microtubules in HeLa cells; HeLa tubulin immunostaining HCS, 24 h; share of cells brighter than vehicle mean+2SD; % tubulin-high responders, % at 10 µM; 0.83% of 200,000 active;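 active means plate Z-score above 3 for both tubulin-high and condensed-nucleus cell shares, with cell loss under 80%, at 10 µM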;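 further: anti alpha tubulin signal scored within the nucleus-defined area of each cell; some results filed as inactive read as strong as hits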
TNAP activation fold – stimulation of alkaline phosphatase TNAP activity – biochemical, luminescent, no phosphate acceptor, uHTS, primary screen (AID 1001); purified TNAP, luminescent activation assay, no phosphate acceptor; higher activation fold means a stronger effect; activation fold at 20 µM; hits with a dose series show EC50 in µM; 0.03% of 200,000 active; in the data active means activation fold from about 3, or a potency from the dose series; inactive means the rest, 99 in 100 with activation fold below about 1.6; further: many of its hits are not listed in these tables
Lipid droplet – hepatic lipid droplet formation modulation; AML12 mouse hepatocytes, oleate lipid droplets, BODIPY imaging; 0.4% of 240,000 active; inhibition, % at 6.5 µM;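 active means lipid droplet intensity inhibited by at least 50%, with more than 500 cells counted; inconclusive means wells with under 300 cells, treated as cytotoxic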
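Material – mouse AML12 hepatocyte cell line, fixed after treatment · Compound dosing – one dose, 6.5 µM compound · Times – compound with oleate, overnight · Measured by – Image-based BODIPY and DAPI two-channel analysis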
Autophagy mod – modulators of autophagy; calls only at 10 µM (by protocol); MEF GFP-LC3 puncta imaging; test concentration mostly 10 µM; 0.98% of 190,000 active;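 active means percentage of spot-positive cells more than 3 SD above its plate mean, without a fluorescence outlier flag or 80% toxicity; inconclusive means no clear call, values can overlap the other calls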;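 further: spot-positive cell cutoff set from DMSO-treated cells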
T cell HTS – T cell immune modulation candidate. 2C CD8+ T cell-vesicle binding, flow cytometry; active compounds read low. calls only at 7 µM. 0.068% of 330,000 active. AID 2052;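 active means response, share of CD8 T cells binding vesicles, and their 90th percentile fluorescence all below set limits, cut at about 80% in these data, passing the limit was not always enough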
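Incubation: binding step 1.5 h, 37 °C, antibody labelling 20 min, ice; system: murine 2C transgenic CD8+ T lymphocytes; technique: cytometric PE anti-B7-1 and Alexa647 anti-CD8 signals after 1% paraformaldehyde fixation; also added: QL9-charged Drosophila Ld/ICAM-1/B7-1 vesicles; control set: naked versus QL9-loaded vesicles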
Ins promoter up cell count – also measured in Ins promoter up; calls as there; cell count; measured here: cytotoxicity, nuclei count;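 total cells summed across four imaged fields per well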
Lipid droplet cells 6.5 µM – also measured in Lipid droplet; calls as there; cell count; measured here: cell count, cytotoxicity flag;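 cells counted across two imaged fields per well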
T cell HTS vesicle-bound % – second read-out of T cell HTS, no call of its own (marks repeat the call); double positive events, %; measured here: CD8+ vesicle-bound cell fraction;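 binding gate set so that unloaded-vesicle control wells show 10% double positive cells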
MT stabilizer Hoechst-high % – recorded beside MT stabilizer, whose call it bears; % Hoechst-high responders; measured here: nuclear condensation Hoechst responders;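 share of cells brighter than vehicle mean plus two SD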
MT stabilizer cytotoxicity % – recorded beside MT stabilizer, whose call it bears; toxicity, %; measured here: cytotoxicity by cell density;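 0% = mean cell density of plate MIN control wells and 100% = no cells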
Autophagy mod cell loss 18 h – also measured in Autophagy mod; calls as there; toxicity, %; measured here: cell loss, nuclei count;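 cell loss after 18 h compound exposure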
An asterisk follows results filed as active; i = inactive; ? = inconclusive; / = not tested or not shown; + = active, no number. This is a subset; the hit share may differ from the screen's.

SMILES	Ins promoter up	Ins promoter up cell count	MT stabilizer	MT stabilizer Hoechst-high %	MT stabilizer cytotoxicity %	TNAP activation fold	Lipid droplet	Autophagy mod	Autophagy mod cell loss 18 h	T cell HTS	T cell HTS vesicle-bound %	others
CCCCC1S/C(=N/N=C/c2ccc(OC)cc2)N(Cc2ccc(OC)cc2)C1=O (stereo not given)	-0.83	1089	1.4	1.4	3.9	1.1	/	i	-1	i	28
O=c1cc(C(F)(F)F)[nH]c(=O)n1C1CCCCC1	0.06	1343	3.7	1.6	4.8	1.1	/	i	-30	i	51
O=C(CSc1n[nH]c(-c2cccs2)n1)N1CCCc2ccccc21	-0.79	1487	1.9	2.1	11	0.9	/	i	9	i	14
Cc1ccc(-c2cc(N)n3nc(-c4ccc(C)cc4)cc3n2)cc1	0.12	1601	1.7	1.6	7.2	1.1	/	i	-6	i	35
CCN=C1S/C(=C\c2ccc(Sc3ccc(Cl)cc3)o2)C(=O)N1CC	-1.1	1643	1.4	1.1	3.6	1.1	/	i	2	i	58
N#Cc1cc2c(nc1SCC(=O)O)CCCC2	1.1	906	0.8	1.3	5.2	1	-8	i	31	i	32	Lipid droplet cells 6.5 µM=707
COc1ccc(C2C(=O)N(C3CCCCC3)CC(=O)N2CC2COc3ccccc3O2)cc1 (stereo not given)	0.05	1602	3.6	2.3	6.8	1	/	i	20	i	15
Cc1cc(/C=C2\SC(=S)N(Cc3ccco3)C2=O)c(C)n1-c1cccnc1	1.4	1546	2.1	1.3	4.0	0.9	/	i	1	/	/
O=[N+]([O-])c1cccc(-c2nnn(C34CC5CC(CC(C5)C3)C4)n2)c1	-0.25	1529	2.1	1.8	7.7	1.1	/	i	-1	i	10
Cc1ccc(Nc2nc(N3CCOCC3)nc(N3CCOCC3)n2)cc1	-0.94	1388	5.1	3.8	4.3	1	/	i	16	i	15
NNC(=O)c1cc2c(s1)CCCCCC2	-0.94	1333	3.3	1.2	1.8	1.1	/	i	3	i	34
CN1CCN(NC(=O)c2ccc(F)cc2)CC1	0.11	1666	2.8	2.0	9.8	1.1	/	i	11	i	39
O=C(CN(c1ccccc1)S(=O)(=O)c1ccccc1)NCCSc1nc2ccccc2s1	-0.01	1539	3.1	2.3	4.3	1.1	/	i	-22	i	58
Cc1c(C)c2ccc(Oc3ccc([N+](=O)[O-])cc3C(F)(F)F)c(C)c2oc1=O	-0.67	1665	3.8	3.0	6.6	0.9	/	i	1	i	42
O=C(CCCn1c(=S)[nH]c2cc3c(cc2c1=O)OCO3)N1CCN(c2ccc(Cl)cc2)CC1	-0.68	849	3.2	1.7	2.4	1.1	/	i	-36	i	6
O=[N+]([O-])c1ccc(N2CCN(Cc3ccccc3)CC2)c(S(=O)(=O)N2CCOCC2)c1	0.15	1469	0.9	1.0	6.0	1.1	/	i	33	i	46
COc1cc(CNCCO)cc(Br)c1OCc1ccccc1Cl	-0.95	922	2.0	1.1	7.2	1.1	/	i	-1	i	51
COc1ccc(OC)c(-n2c(-c3ccc(C)cc3)n[nH]c2=S)c1	0.42	1640	2.5	1.3	8.8	1.1	/	i	2	i	8
S=C(Nc1ccccc1)Nc1ccc(OCc2ccccc2)cc1	-0.25	1690	1.7	1.5	5.5	1.1	/	i	1	i	28
CC(C)CNc1ncnc2c1sc1nc(N3CCOCC3)c3c(c12)CC(C)(C)OC3	-0.99	1571	1.7	1.3	6.2	1.1	/	i	6	i	40
O=C(NNC(=O)C1COc2ccccc2O1)c1ccccc1 (stereo not given)	0.01	1535	3.2	1.3	4.0	1.1	/	i	21	i	32
CC(C)(C)NC(=O)Cn1nnc(-c2ccccc2NC(=O)c2cnccn2)n1	-0.41	1655	2.8	1.3	6.5	1	/	i	1	i	32
COc1ccc(C(=O)Nc2n[nH]c(-c3ccncc3)n2)cc1	-0.37	1602	2.4	2.9	8.2	0.1	/	i	-24	i	14
O=[N+]([O-])c1ccccc1OCCCN1CCOCC1	-0.25	1667	1.8	0.8	9.3	1.1	/	i	1	i	56
COc1cc2cc(CN(CCCO)S(=O)(=O)c3ccccc3Cl)c(=O)[nH]c2cc1OC	0.29	1555	5.3	2.5	4.2	1	/	i	7	i	34

Entries above containing a thiophene ring, fused or not (3):
SMILES	Ins promoter up	Ins promoter up cell count	MT stabilizer	MT stabilizer Hoechst-high %	MT stabilizer cytotoxicity %	TNAP activation fold	Lipid droplet	Autophagy mod	Autophagy mod cell loss 18 h	T cell HTS	T cell HTS vesicle-bound %	others
O=C(CSc1n[nH]c(-c2cccs2)n1)N1CCCc2ccccc21	-0.79	1487	1.9	2.1	11	0.9	/	i	9	i	14
NNC(=O)c1cc2c(s1)CCCCCC2	-0.94	1333	3.3	1.2	1.8	1.1	/	i	3	i	34
CC(C)CNc1ncnc2c1sc1nc(N3CCOCC3)c3c(c12)CC(C)(C)OC3	-0.99	1571	1.7	1.3	6.2	1.1	/	i	6	i	40

Additional records.
SMILES	Ins promoter up	Ins promoter up cell count	MT stabilizer	MT stabilizer Hoechst-high %	MT stabilizer cytotoxicity %	TNAP activation fold	Lipid droplet	Autophagy mod	Autophagy mod cell loss 18 h	T cell HTS	T cell HTS vesicle-bound %	others
CC1CCCC(C)N1CCNC(=O)Cn1nc(-c2ccccc2)ccc1=O (stereo not given)	0.85	1677	1.3	2.0	4.9	1.1	/	i	-7	i	40
O=[N+]([O-])c1cccnc1NCCNc1ncc(C(F)(F)F)cc1Cl	-0.07	1626	1.4	1.5	9.4	1	/	i	1	i	48
C=CCc1ccc(OCCOCCOc2ccc(C)cc2[N+](=O)[O-])c(OC)c1	-0.96	1549	1.3	1.8	8.7	1.1	/	i	8	i	1
COC(=O)c1cc(OC)c(OC)cc1NC(=S)Nc1cccc(Cl)c1	0.19	1608	3.5	1.2	2.2	1.1	/	i	7	i	38
Cc1nn2c([nH]c(=O)c3ccccc32)c1C=O	0.99	1351	2.6	2.0	5.0	1.1	/	i	1	i	43
COCCNC(=O)C1CCN(S(=O)(=O)N2CCC3(CC2)OCCO3)CC1	-0.04	1644	1.6	1.0	3.2	1.1	/	i	-11	i	39
CC[n+]1c(/C=C/C=C/N(C(C)=O)c2ccccc2)sc2ccccc21	?	/	75	3.6	13	0.7	/	+	-1.5*	i	7
O=C(NC1CCCCC1)C(c1ccc(F)cc1)N(C(=O)Cc1ccsc1)c1ccc(F)cc1 (stereo not given)	0.14	1416	1.8	1.6	8.5	1.2	/	i	2	i	24
CCCCNC(=O)NNC(=O)c1ccoc1C	0.39	1110	2.7	2.1	7.4	1.1	/	i	-19	i	57
O=C(c1ccco1)N1CCN(c2nc(-c3ccc(F)cc3)cs2)CC1	-0.34	1463	2.4	2.3	6.1	1.1	/	i	1	i	26
COc1ccccc1CNC(=O)CN1CCC(NC(=O)c2ccccc2F)CC1	-0.64	1188	3.2	1.8	0.4	1.1	/	i	-7	i	41
CCC(=O)N(c1ccc(F)cc1)C1C=CS(=O)(=O)C1 (stereo not given)	1.1	1508	4.0	3.0	0.1	0.9	/	i	1	i	28
CCCc1cc(C(=O)Cc2nc3ccccc3s2)c(O)cc1O	-0.12	1566	3.4	1.3	8.0	1.2	/	i	-4	i	50
Cc1ccc(OCC(=O)c2c(O)c3ccccc3oc2=O)cc1C	-1.1	1608	2.0	1.2	4.6	1.1	/	i	-4	i	59
CC(C)(C)C1CCC2(CC1)C(C#N)=C(SCC(=O)Nc1ccccc1)NC(=O)C2C#N (stereo not given)	0.28	1149	5.3	3.1	12	1.1	-11	i	-4	i	24	Lipid droplet cells 6.5 µM=806
C=CCSc1ncccc1C(=O)NCc1ccc(C)cc1	0.27	1492	3.4	2.0	5.8	1.1	/	i	1	i	62
Cc1onc(-c2ccccc2Cl)c1C(=O)NCc1cccs1	-0.79	1366	2.3	1.9	3.0	1.1	/	i	9	i	60
COc1ccc(OCC(O)COc2ccc(C(=O)O)cc2)cc1 (stereo not given)	-0.26	1596	4.8	3.4	5.2	1	/	i	22	i	18
O=C(CCSCCc1ccncc1)NCCCN1CCOCC1	0.09	1486	5.1	2.8	2.0	1.1	/	i	-9	i	20
CN(C)c1ccc(CNc2ncc(Br)cc2Br)cc1	0.52	1579	3.8	1.6	5.3	1.1	/	i	-2	i	37
COn1c(SCc2ccc(Cl)cc2)nc2ccccc2c1=O	-0.43	1449	2.0	1.3	4.5	1.1	/	i	1	i	19
O=S(=O)(c1ccc(Cl)cc1)n1nnc2ccccc21	-0.44	1693	1.7	1.9	2.6	1.1	/	i	5	i	59
CC(C)NC(=O)CC1Nc2c3ccccc3nc(=S)n2C1=O (stereo not given)	0.48	1601	2.6	1.4	5.2	1.1	/	i	10	i	42
CCN(CC)c1ccc(N2C(=O)/C(=C/c3cccnc3)SC2=S)cc1	0.65	1338	1.0	0.8	12	1	/	i	0	i	9
Cc1ccc(NC(C#N)c2ccccc2OCc2ccccc2)cc1 (stereo not given)	0.05	1154	6.2	4.7	6.9	1.1	/	i	-25	i	40
COc1ccccc1-n1cc(C(=O)NCC(=O)N2CCN(c3ccccc3)CC2)c2ccccc2c1=O	-0.73	1667	3.6	3.3	4.0	1	/	i	1	i	26
CC(NC(=O)c1ccccc1F)C(=O)O (stereo not given)	-0.25	1482	2.7	1.8	0.4	1.2	/	i	-2	i	31
C=C(C)C1CC=C(C)/C(=N\NC(=O)CNc2ccccc2OC)C1 (stereo not given)	-0.19	1415	1.5	1.9	0.5	1.1	7	i	24	i	26	Lipid droplet cells 6.5 µM=637

Structural class: the entries above with a cyano group.
SMILES	Ins promoter up	Ins promoter up cell count	MT stabilizer	MT stabilizer Hoechst-high %	MT stabilizer cytotoxicity %	TNAP activation fold	Lipid droplet	Autophagy mod	Autophagy mod cell loss 18 h	T cell HTS	T cell HTS vesicle-bound %	others
N#Cc1cc2c(nc1SCC(=O)O)CCCC2	1.1	906	0.8	1.3	5.2	1	-8	i	31	i	32	Lipid droplet cells 6.5 µM=707
CC(C)(C)C1CCC2(CC1)C(C#N)=C(SCC(=O)Nc1ccccc1)NC(=O)C2C#N (stereo not given)	0.28	1149	5.3	3.1	12	1.1	-11	i	-4	i	24	Lipid droplet cells 6.5 µM=806
Cc1ccc(NC(C#N)c2ccccc2OCc2ccccc2)cc1 (stereo not given)	0.05	1154	6.2	4.7	6.9	1.1	/	i	-25	i	40
